Screening data: PubChem BioAssay, National Center for Advancing Translational Sciences (NCATS)
gsp agonist: gsp mutant agonism; gsp mutant cells, cAMP HTRF, 30 min; control for the full effect not named in the record; Potency, µM (top dose mostly 76.9 µM), for the others: top-dose activation (cAMP increase), usual class: activators; 340,000 compounds, 0.13% hits; active = well fitted activation curve with a large enough effect; inconclusive = small, poorly fitted or top-dose-only effect, or another doubt; inactive = no such curve, though single readings can be large or run the other way; cell line not stated here;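 also: phosphodiesterase inhibitor Ro 20-1724 added with compounds to block cAMP breakdown; potency is read from the fitted curve at half-maximal effect; nearly all actives have a fitted effect of over 60% in size; about a fifth of the inactives were tested at one dose only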
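Cells stably selected in G418 were plated at 2000/well, grown 16-24 hr, then given compounds in DMSO with the PDE inhibitor […] (300 uM solution added) for 30 min at 37C; cAMP was read by HTRF.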
PINK1 modulator: PINK1 expression modulation | 410,000 compounds, 0.2% hits | Potency, µM (series often up to 76.6 µM), for inactives: top-dose activation (PINK1 increase), actives largely listed as activators | PINK1 immunofluorescence, high-content cytometry, 24 h; active = well fitted activation curve with a large enough effect; inconclusive = small, poorly fitted or top-dose-only effect; inactive = flat fitted curve, though single readings scatter; cell line not stated here;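 also: potency is read from the fitted curve at half-maximal effect; % of control where 0% means no effect; nearly all actives have a fitted effect of over 65% in size; a mitochondrial uncoupler was the plate control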
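Decision-based qHTS: stable cells, 24 h exposure to five compound concentrations, CCCP as control. Fixed cells stained for PINK1 plus nuclear, mitochondrial and cell markers, cytometer read.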
gsp antagonist: gsp mutant antagonism; 340,000 compounds, 0.4% hits; AID 624288; Potency, µM (series often up to 76.9 µM), inactives show at the highest dose activity change, negative = inhibition, usual class: inhibitors; gsp-mutant cells, cAMP HTRF, 30 min; control for the full effect not named in the record; active = falling curve of any shape with a large fitted effect; inconclusive = falling curve, mostly with a smaller effect; inactive = flat or rising curve; cell line not stated here;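 also: intracellular cAMP measured with PDE inhibitor Ro 20-1724 present during compound exposure; potency is read from the fitted curve at half-maximal effect; % is scaled to controls: 0 for no effect and ±100 for the full control effect; nearly all actives have a fitted effect of over 65% in size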
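HTRF cAMP measurement after 30 min RT detection following 30 min, 37C compound treatment alongside […] (added as 300 uM solution) in G418-selected cells seeded at 2000/well and grown 16–24 h.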
ClpP mod: qHTS Assay for Activators of ClpP; 340,000 compounds, 1.9% hits; ATP-dependent Clp protease proteolytic subunit (Bacillus subtilis (strain 168)), P80244; Potency, µM (doses to about 57.5 µM), without a hit: top-dose activity change, negative = active; AID 651965, 2013; purified B. subtilis ClpP, FRET peptide cleavage, 20 min; active = well fitted falling curve with a large enough effect; inconclusive = small, poorly fitted or top-dose-only effect; inactive = no such curve, though single readings can be large or run the other way; also: potency is read from the fitted curve at half-maximal effect; the source files actives as falling curves though it sought activators and does not explain the sign; nearly all actives have a fitted effect of over 65% in size; many hits overshoot -100%
Target sequence (P80244 whole entry, looked up): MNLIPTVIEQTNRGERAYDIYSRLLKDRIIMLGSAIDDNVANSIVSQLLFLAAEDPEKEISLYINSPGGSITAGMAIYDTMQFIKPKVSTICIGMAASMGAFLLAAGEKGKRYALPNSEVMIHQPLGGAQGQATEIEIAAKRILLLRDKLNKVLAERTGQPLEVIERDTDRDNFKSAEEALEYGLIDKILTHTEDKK
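FRET quenching reversal measured ClpP activation: 10 microg/mL B. subtilis ClpP at pH 8 with the FRET-FV decapeptide, read at 430 nm after 320 nm excitation. The 20-min minus 0-min signal was scaled between DMSO/no-enzyme wells and ADEP (5.8 microM final).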
D2 agonist: activates the human D2 dopamine receptor; P14416; DiscoveRx PathHunter D2 beta-arrestin, luminescence, 90 min; 100% = 57 uM dopamine signal; activation, % (concentration not given with the values); 360,000 compounds, 0.084% hits; AID 624465; in the data active = activation above about 40%; inconclusive = about 15% to 40%; inactive = below about 15%; also: the text of the record calls up to 30% inactive
Target sequence (P14416 whole entry, looked up): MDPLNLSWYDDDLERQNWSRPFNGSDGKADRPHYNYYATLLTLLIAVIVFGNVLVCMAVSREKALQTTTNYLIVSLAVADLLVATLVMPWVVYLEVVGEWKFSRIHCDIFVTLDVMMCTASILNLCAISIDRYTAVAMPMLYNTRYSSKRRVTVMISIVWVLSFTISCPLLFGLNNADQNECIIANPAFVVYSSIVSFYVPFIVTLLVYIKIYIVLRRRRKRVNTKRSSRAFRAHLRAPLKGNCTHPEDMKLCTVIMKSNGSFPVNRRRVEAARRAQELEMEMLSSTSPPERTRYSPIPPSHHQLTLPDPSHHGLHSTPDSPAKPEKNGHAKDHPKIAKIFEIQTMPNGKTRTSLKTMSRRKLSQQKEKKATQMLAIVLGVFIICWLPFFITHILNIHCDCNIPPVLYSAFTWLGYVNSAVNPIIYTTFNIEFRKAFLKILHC
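Agonist mode: compounds alone added to overnight-plated D2 PathHunter cells for 90 min at 37 C, with 57 uM final dopamine (EC100) defining full response. Beta-arrestin recruitment detected by chemiluminescent reagent, read after 1 h at ambient temperature.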
Menin MLL FP FL: inhibitors of human menin-MLL interaction, wild-type MLL peptide. Fluorescence polarization, fluorescein-MLL peptide displacement from menin. FP activity change, % at 61.4 µM. 290,000 tested, under 10 active. AID 1766; inconclusive = falling polarisation curve, or a change in total fluorescence; inactive = total fluorescence flat and polarisation flat or rising; no compound was filed as active; the % refers to the polarisation; negative = inhibition;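 also: % of control where 0% means no effect; inhibitors lower the polarisation; unlabelled MLL peptide was the positive control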
Sfp inh: Sfp phosphopantetheinyl transferase inhibition | 310,000 compounds, 3.5% hits | AID 1490 | Q9F4F7 | Biochemical Sfp PPTase activity, qHTS | Potency, µM, inactives show max response, negative = inhibition, hits mostly inhibitors; active = well fitted inhibition curve with a large enough effect; inconclusive = small, poorly fitted or top-dose-only effect, or another doubt; inactive = no such curve, though single readings can be large or run the other way;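 also: the enzyme is Sfp with the accession as filed and its product quenches rhodamine fluorescence; potency is read from the fitted curve at half-maximal effect; 0% = enzyme reaction without inhibitor and -100% = no enzyme wells; top concentration of the series not given in the record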
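Compounds were incubated with enzyme (final 15 nM) for 15 min at room temperature before substrate addition started the reaction. Fluorescence at 525 nm excitation, 598 nm emission was recorded immediately and after 30 minutes.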
The depositor's hits bear a star; ? = inconclusive; . = no result given; [ ] = another dose, or the depositor's remark.

SMILES | gsp agonist | PINK1 modulator | gsp antagonist | ClpP mod | D2 agonist | Menin MLL FP FL | Sfp inh
CN1CCN(c2ccc(NC(=O)COc3cccc4ccccc34)cc2)CC1 | 4.6%[15.4 µM] | 1.5% | 6.1% | . | -1.8 | -0.2 | -6.0%
Cc1noc(-c2ccccc2)c1NC(=O)Nc1ccc(Cl)cc1 | -5.4%[15.4 µM] | ? | ? | . | 4.6 | 1.0 | -0.9%
O=C(CCn1cnc2ccccc21)N/N=C/C=C/c1ccccc1 | ? | 0.1% | -6.9% | . | 2.7 | 1.0 | 9.6%
S=c1[nH]nc(C2CCCCC2)n1/N=C/c1ccco1 | -16.1% | 3.5% | 0.1% | -1.4% | -11.8 | 5.1 | -1.9%
Cc1ccc2c(Cl)cc(Cl)c(OCC(=O)N3CCCC3)c2n1 | 6.9%[15.4 µM] | 0.1% | 13.3% | -1.4% | -2.5 | 1.1 | -0.5%
O=C(NNCc1ccccc1)c1ccccc1 | -11.9% | 1.9% | 8.5% | . | -2.2 | . | .
Oc1ccc(N=Nc2ccccc2)o1 | -53.0%[inhibitor] | -2.7% | 6.2% | 0.0% | -1.1 | -2.5 | ?
COC(=O)c1ccc(NC(=O)Cn2nnc3ccccc32)cc1 | 16.9% | 7.0% | 4.9% | 0.6% | 0.3 | -0.6 | 9.3%
NS(=O)(=O)c1ccc(NC(=O)c2cc(-c3cc(Cl)ccc3O)n[nH]2)cc1 | 2.6%[15.4 µM] | 2.4% | -34.0% | -4.6% | -3.5 | ? | ?
CCN(CC(=O)Nc1ccc(OC)cc1)C(=O)Cc1ccc(OC)c(S(=O)(=O)N2CCOCC2)c1 | 8.5% | 4.6% | 4.1% | 1.0% | -0.8 | . | .
COCCn1c(C)cc2c(c1=O)C(c1ccccc1F)C(C#N)=C(N)O2 (stereo unspecified) | -52.3%[inhibitor] | 5.7% | 1.1% | -3.0% | -3.4 | 4.9 | 14.4%
CN(C(=O)COC(=O)c1ccc2c(c1)OCCO2)C1CCCCC1 | 2.4% | 0.1% | 5.7% | -2.4% | -1.4 | . | .
COc1ccc(C(=O)NCC(c2ccco2)N2CCc3ccccc32)cc1OC (stereo unspecified) | 3.6% | -0.2% | -22.4% | 3.0% | -3.2 | . | .
CCN(C(=O)COc1ccc(C)cc1OC)c1cccc2ccccc12 | 3.9% | -4.9% | -5.5% | -2.0% | -5.7 | . | .
CC(=O)Nc1cccc(OCC(O)Cn2c(C)nc3ccccc32)c1 (stereo unspecified) | -4.3% | 2.0%[38.3 µM] | -3.6% | -1.7% | -1.3 | 1.2 | 23.6%
O=C1NC[C@H](Cc2ccccc2)N(C[C@@H]2CCCN2C[C@H](Cc2ccccc2)N2C[C@H](Cc3ccccc3)N(CCc3ccccc3)C(=O)C2=O)C1=O | . | 8.9% | . | -3.9% | -5.4 | . | .
COc1ccc(Cl)cc1C(=O)NNC(=O)c1cccs1 | -0.2%[15.4 µM] | -1.0% | 4.1% | -0.3% | 0.2 | . | .
CC(C)CN1C(=O)C(=Nc2cccnc2)c2ccccc21 | ? | 5.2% | 15.1% | -4.0% | -1.4 | -6.5 | 20.3%
Cc1cc(C(=O)Nc2ccc(Cl)c(S(=O)(=O)N3CCOCC3)c2)c2ccccc2n1 | -4.7% | 2.0% | -4.9% | -0.7% | 0.1 | . | .
CC1CC(NC(=O)N(C)C)N(C)C(=O)N1 (stereo unspecified) | 21.6% | 2.9% | 13.7% | -1.2% | -0.1 | 2.6 | -0.1%
CCOCCn1c(=NC(=O)CSCC(=O)N2CCOCC2)sc2cc(OC)ccc21 | ? | 2.9% | 3.7% | -16.2% | -1.5 | . | 6.7%
COc1ccc(OC)c(CNC(=O)CCCc2cn(C)c3ccccc23)c1 | -41.7%[inhibitor] | -0.5% | -13.9% | -25.7% | -3.9 | -3.0 | -11.3%
Cc1ccccc1N1CC(=O)N(c2ccccc2C)CC1=O | 8.0% | -0.4% | 5.9% | -2.6% | -0.7 | 3.8 | 17.3%
CC1CN(c2sc(S(C)(=O)=O)nc2S(=O)(=O)c2ccc(Cl)cc2)CC(C)O1 (stereo unspecified) | 22.3% | 1.6% | 6.8% | -0.3% | 1.7 | . | 1.0%
c1ccc(-c2noc(-c3ccc4ccccc4c3)n2)nc1 | 5.7% | -3.1% | ? | 5.4% | 3.9 | 4.5 | -12.8%
COc1ccc(C(=O)/C=C/Nc2ccc(S(=O)(=O)Nc3onc(C)c3C)cc2)cc1 | 1.7% | -1.2% | ? | 0.1% | -1.1 | 7.4 | 8.1%
Cc1ccc(S(=O)(=O)N(C)c2ccc(OCC(=O)N3CCCCC3)cc2)cc1 | 1.1% | 2.2% | -14.2% | 2.5% | -0.7 | . | 10.8%
COc1ccccc1NC(=O)CSc1nc2c(oc3ccccc32)c(=O)n1C | 13.7% | -0.5% | ? | -1.4% | 0.1 | . | -9.5%
Cc1ccc2c3c(c(SCC(=O)Nc4nonc4C)nc2c1)CCCC3 | -46.7%[inhibitor] | 10µM* | 6.3% | 4.7% | 0.1 | 2.4 | -0.9%
COc1ccc(-c2nn(-c3ccccc3)cc2C(=O)Nc2cccc(S(=O)(=O)NC3=NCCC3)c2)cc1 | -19.9% | 0.7% | -25.1% | ? | 13.4 | . | .
Cc1ccc(NC(=O)CNC(c2ccccc2)c2ccccc2)c(F)c1 | -1.3% | 0.8% | -27.3% | 0.1% | -4.2 | 6.4 | 5.4%
COc1cccc(/C=N/NC(=O)CNC(=O)c2ccncc2)c1O | 10.0% | 2.5% | -2.7% | -2.3% | 7.9 | -4.6 | 19.1%
CCCCCCn1c(=O)n2n(c1=O)[C@@H]1CN(S(=O)(=O)c3ccc(C)cc3)C[C@]1(O)[C@@H](OC(=O)NC1CC1)C2 | -12.0% | 1.8% | . | -0.8% | -6.2 | . | .
CN(C)C1(CNC(=O)C2CCN(S(=O)(=O)c3ccccc3C(F)(F)F)CC2)CCCCC1 | -44.1%[inhibitor] | -1.8% | 6.5% | -1.6% | -2.5 | . | 20.3%
CCOc1ccc(C(=O)N(c2ccccn2)C2CCCCC2)cc1 | 15.7% | 1.0% | -7.9% | -1.6% | 7.2 | -0.4 | 21.4%
O=C(Cc1cccs1)Nc1nc2c(ccc3ccccc32)s1 | -4.6% | 9.0% | -11.0% | -7.8% | -0.3 | 5.3 | 9.2%
COc1ccccc1OCCC(=O)NNC(=O)c1ccccc1F | -13.2% | -0.4% | 7.3% | -2.2% | -5.7 | . | .
O=C(Nc1c(-c2ccccc2)[nH][nH]c1=O)c1ccco1 | . | 0.8% | . | -1.5% | -4.1 | . | .
CCc1cc2ccc(OC)cc2nc1SCC(=O)Nc1cc(C)on1 | ? | 13.9% | 7.5% | -1.7% | -0.9 | 2.4 | -3.5%
CCCC(=O)N1CC(=O)Nc2ccc(C)cc2C1c1ccccc1 (stereo unspecified) | 17.6%[15.4 µM] | 5.0% | -1.1% | 17.8µM* | -3.7 | -0.3 | -3.9%
COc1ccc(CN(C2CC2)S(=O)(=O)c2ccccc2Br)cc1 | . | 0.2% | -7.2% | -2.1% | -1.9 | . | .
Cc1ccc(S(=O)(=O)Nc2cccc3c2O[C@H](CN(C)Cc2ccccc2)[C@@H](C)CN([C@H](C)CO)C3=O)cc1 | 2.6% | 1.2% | -5.5% | 1.7% | -3.0 | . | .
CC(C)(C)C(=O)/C=c1\[nH]c(=O)/c(=C\c2ccc(C#N)cc2)s1 | -3.2% | ? | -13.1% | -5.0% | -5.7 | 4.5 | 1.8%
O=C(O)c1cc(S(=O)(=O)N2CCN(c3ccccn3)CC2)ccc1Cl | 7.8%[15.4 µM] | 1.0% | -6.4% | 0.0% | 0.4 | -2.0 | 3.2%
C=CCNC1=C(Cl)C(=O)N(Cc2ccccc2)C1=O | ? | 2.8% | -13.8% | . | -3.7 | 0.3 | 5.6%
O=C(CCNC(=O)c1ccco1)Nc1ccccc1 | ? | -1.2% | 6.1% | . | 0.5 | -0.2 | 4.2%
Cc1nc(NC(=O)C(C)Oc2cccc(Cl)c2)sc1C(=O)N(C)C (stereo unspecified) | -3.9% | 1.6% | -5.9% | 1.4% | -3.9 | 4.6 | -2.3%
Cc1cccc(CNc2ncncc2-c2ccccc2C)c1 | . | 0.1% | . | . | . | -2.3 | 3.0%
CCS(=O)(=O)Nc1cccc(C2=NN(S(=O)(=O)c3ccc(F)cc3)C(c3cccs3)C2)c1 (stereo unspecified) | 1.5%[15.4 µM] | -2.0% | -31.9% | 0.8% | -1.5 | 4.4 | 6.7%
O=S(=O)(c1ccccc1)c1nc(-c2ccco2)oc1NCc1ccco1 | 0.0% | -2.9% | -5.3% | -3.0% | 2.2 | 2.4 | -7.5%
CC(CN1CCCCC1)OC(=O)C1c2ccccc2Oc2ccccc21 (stereo unspecified) | -20.4% | -1.1% | -4.9% | -0.6% | -0.2 | 0.1 | 7.7%
Cc1nn(C)c(Oc2cccc(Cl)c2)c1C#N | 14.2% | -1.0% | -6.8% | -1.2% | -3.8 | 3.7 | 3.0%
C[n+]1cc[nH]c1SCC(=O)c1ccc(Cl)cc1 | -7.4% | 0.2% | 2.9% | . | 0.1 | -3.0 | ?
O=C(/C=C\Nc1ccc2c(c1)OCO2)c1ccc(Cl)s1 | 4.8% | ? | 8.6% | . | 0.9 | 10.6 | 4.8%
O=C(NCc1ccccn1)c1cccc(S(=O)(=O)N2CCCCC2)c1 | 19.2% | 1.0% | 11.2% | -2.5% | -0.1 | . | .
CCCN1C(=O)c2cc(C(=O)O)ccc2C1O (stereo unspecified) | 27.2% | 0.4% | 7.2% | -0.4% | -9.9 | -0.6 | 10.2%
COc1cc(OC)cc(-c2cn[nH]c2N)c1 | 3.8% | 0.5% | 6.0% | . | 0.1 | -1.5 | 14.1%
CN(Cc1ccccc1)c1ccc(S(=O)(=O)N2CCOCC2)cn1 | -17.9% | 0.8% | 12.9% | -6.0% | -3.1 | 3.1 | 4.1%
Cc1ccccc1-n1c(C)nnc1SCc1nc2ccccc2s1 | -54.6%[inhibitor] | . | 3.8% | -1.5% | -2.4 | 6.2 | -1.2%

Rows were taken by chance (roughly 5.1% active in at least one column).
